Vaccinia Venus: vaccinia inhibition (Venus reporter); Vaccinia virus Venus reporter expression, fluorescence; Potency, µM (series often up to 36.5 µM), inactives show top-dose activity change, negative = inhibition, usual class: inhibitors; actives 0.46% (n = 330,000); active means well fitted inhibition curve with a large enough effect; inconclusive means small, poorly fitted or top-dose-only effect; inactive means no such curve, though single readings can be large or run the other way; tested in A549 cells; also: nearly all actives have a fitted effect of over 30% in size; inactives centre near -10
Vaccinia mCherry: inhibitors of vaccinia virus infection (mCherry reporter signal) | AID 720579 | Vaccinia virus mCherry reporter infection, fluorescence; about a quarter of the inactives have no number | Potency, µM (highest dose often 36.5 µM), without a hit: at the highest dose activity change, negative = inhibition, actives largely listed as inhibitors | actives 0.63% (n = 310,000); active = well fitted inhibition curve with a large enough effect; inconclusive = small, poorly fitted or top-dose-only effect; inactive = no such curve, though single readings can be large or run the other way; tested in A549 cells; also: nearly all actives have a fitted effect of over 35% in size; inactives centre near -10
Active calls of the source: *; i = inactive; ? = inconclusive; · = no result given; [ ] = another dose, or the depositor's remark. % is scaled to controls: 0 for no effect and ±100 for the full control effect; potency is read from the fitted curve at half-maximal effect.

SMILES	Vaccinia Venus	Vaccinia mCherry
CCn1c(SCC(=O)Nc2ccccc2)nc2c([nH]c3ccccc32)c1=O	14%	15%
CC(Oc1cccc(Cl)c1)C(=O)Nc1ccc(S(=O)(=O)N(C)C2CCN(C)CC2)cc1 (configuration not stated)	?	11µM*
O=C(OCc1ccc([N+](=O)[O-])cc1)C1CC(=O)N(CCc2ccccc2)C1 (configuration not stated)	-13%	-17%
CCN(CC)CCOC(=O)c1ccc(NC(=O)CNC(=O)C2CCCCC2)cc1	-7%	-20%
CN(C)C(=O)c1ccc(Nc2nc(-c3cccs3)nc3ccccc23)cc1	-18%	?
CCCC(=O)NC(c1ccccc1Cl)c1c(O)ccc2ccccc12 (configuration not stated)	-30%	?
O=C1NC(=O)C(=Cc2ccc(Cl)cc2Cl)S1	-20%	?
CNC(=O)CSc1nc2sccc2c(=O)n1-c1ccccc1	-9%	-18%
CCC(=O)CCC(=O)c1ccc2ccccc2c1	2%	-3%
COc1cccc(C2/C(=C(/O)c3cnn(-c4ccccc4)c3C)C(=O)C(=O)N2CCN(C)C)c1OC (configuration not stated)	-2%	-11%
Cc1ccccc1CN(CC(=O)Nc1cccc([N+](=O)[O-])c1)S(=O)(=O)c1ccc(Cl)cc1	?	?
Cc1ccc(NC(=S)N2CCN(C3CCCCC3)CC2)cc1	-9%	i
O=C(COC(=O)CNC(=O)C12CC3CC(CC(C3)C1)C2)NC1CCS(=O)(=O)C1 (configuration not stated)	-6%	i
O=C(O)c1ccc(COc2ccccc2/C=C2\NC(=O)N(Cc3ccccc3F)C2=O)cc1	-9%	i
CCCn1c(=O)c2sccc2n2c(CCCC(=O)NCc3cccnc3)nnc12	0%[7.34 µM]	-6%[7.34 µM]
C[C@@H]1CN([C@@H](C)CO)C(=O)CCCn2nncc2CO[C@@H]1CN(C)S(=O)(=O)c1cccc(C#N)c1	-7%	-23%
COc1ccc(CC(=O)NC(C)c2nnc(SCC(=O)c3ccc(Br)cc3)n2C)cc1 (configuration not stated)	-6%	-10%
CC(C)c1nc2sc3c(SCCN(C)C)ncnc3c2c2c1CCC2	0%	-1%
CCOc1ccc(CN2CCNC(=O)C2CC(=O)OC)cc1 (configuration not stated)	-5%	i
CC(C)(C)C1CCC(=NNc2nc3ccccc3[nH]2)CC1 (configuration not stated)	-13%	-15%
NNC(=O)CNc1ccccc1Cl	-17%	-4%
CCN(C[C@H]1N[C@@](Cc2ccccc2)(C(=O)OC)[C@H]2C(=O)N(C)C(=O)[C@@H]12)C(=O)c1ccccc1	-5%	i
COc1ccc(C(CNC(=O)CSc2ccc(Br)cc2)N2CCOCC2)cc1 (configuration not stated)	1%	-22%
CC1CCCCN1C(=O)CCC(=O)Nc1nnc(C2CCCCC2)s1 (configuration not stated)	-12%	-28%
COCCNC(=O)C1CCN(C(=O)C2CC(=O)N(c3ccc(C)cc3)C2)CC1 (configuration not stated)	-16%	3%
Cc1ccc(NC2=CC(=O)CC(c3ccccc3)C2)cc1 (configuration not stated)	-18%	-28%
Cc1ccc(-c2nc3ccccc3o2)cc1NC(=O)COc1ccccc1C	-11%	-20%
COc1ccc(OC)c(Cc2cnc3nc(N)nc(N)c3c2C)c1	1.1µM*	-20%
COc1ccc(NC(=O)C2CCCN(S(=O)(=O)c3cccc4nonc34)C2)cc1Cl (configuration not stated)	1%	-10%
CC(c1ccccc1)n1cc(C(=O)NCC2COc3ccccc3O2)nn1 (configuration not stated)	-15%	-32%
CCn1cc2nc(SCc3cc(C)ccc3C)n(CCc3ccccc3)c(=O)c2n1	-21%	?
O=C(NCCCn1ccnc1)/C(=C/c1ccco1)NC(=O)c1ccco1	7%	i
CCOC(=O)C1(C)Oc2cccnc2NC1=O (configuration not stated)	-7%	-9%
O=C(Nc1cc(S(=O)(=O)N2CCOCC2)ccc1N1CCOCC1)c1ccccc1Cl	-10%	i
CCCCNC(=S)N1CCn2cccc2C1c1ccc(F)cc1 (configuration not stated)	-3%	-27%
Cc1ccc(-c2nc3ccc(C)cn3c2Cc2cccc(Cl)c2)cc1	-3%	-13%
Cc1ccc(S(=O)(=O)Nc2ccc3[nH]c(=O)sc3c2)cc1C	-6%[7.34 µM]	-5%[7.34 µM]
COc1ccccc1CNC(=O)Cn1cnc2ccccc2c1=O	-16%	-18%
COc1cc2c(cc1OC)-c1cc(Nc3cccc(C)c3)nc(=O)n1CC2	-9%	-13%
COc1ccc(NC(=O)Cn2cnc3c(nc4n3CCCCC4)c2=O)cc1Cl	1%	3%
COc1ccc(NC(=O)Cn2nnc(C(=O)Nc3ccc(F)c(Cl)c3)c2N)cc1	-9%	-15%
COc1ccccc1NC(=O)C1CCCN(c2ncnc3onc(-c4ccc(F)cc4)c23)C1 (configuration not stated)	13%	8%
CC(=O)[C@]1(O)CCC2C3CC(C)C4=CC(=O)C=CC4(C)[C@@]3(F)C(O)C[C@]21C (some centres not stated)	-7%	-15%
O=C(NC1CCCCC1)C(CCc1ccccc1)N1CCOCC1 (configuration not stated)	-4%	17%
Cc1ccnc(SCCn2c(N(C)Cc3ccccc3)nc3c2c(=O)n(C)c(=O)n3C)n1	-6%	-10%
COC(=O)c1ccccc1NC(=S)NC(=O)c1ccccc1C	-6%	-4%
Cc1cc2c(c(SCC(=O)NCc3ccc(Cl)cc3)n1)C(=O)OC2	-2%	i
COc1ccccc1OCC(=O)NCCS(=O)(=O)N1CCN(c2ccccc2OC)CC1	-7%	-13%
CC(NC(=O)CSc1n[nH]c(=O)[nH]c1=O)C1CC2CCC1C2 (configuration not stated)	0%[7.34 µM]	i[7.34 µM]
O=C(NCc1cccnc1)c1cc(C2CCCCN2C(=O)c2ccc3ccccc3c2)on1 (configuration not stated)	-13%	-14%
CCN(c1ccccc1)S(=O)(=O)c1ccc(NC(=S)NC(=O)c2ccc(Br)o2)cc1	-29%	·
CC(C)NC(=O)CCn1c(SCc2c(F)cccc2Cl)nc2c(sc3ccccc32)c1=O	-10%	-13%
CC1(C)CNC(=O)c2sc(N3CCOCC3)nc2C1	-4%	-17%
Nc1nc(=O)c2ccccc2s1	3%	-12%
Cc1c(CCNC(=O)C(C)(C)C)sc2nc(-c3ccc(F)cc3)nn12	-30%	-26%
Nc1[nH]c(C(=O)c2ccccc2)c(-c2ccc(C(F)(F)F)cc2)c1C(=O)NCc1ccc(Cl)cc1Cl	-3%	-5%
COC(=O)C1=C(C(=O)OC)SC(=C2C(=S)C(C)(C)N(C(=O)C(C)C)c3ccccc32)S1	-20%	i
CC1=C(C(=O)OC2CCCCCC2)C(c2ccc(Cl)cc2Cl)CC(=O)N1 (configuration not stated)	1%	8%
Cc1cc(C)nc(N/C=C(\C#N)C(=O)c2cccc(CSc3ccccc3)c2)n1	-7%	-8%
CC1(C(=O)NCCCN2CCCC2=O)CCN1CCc1ccccc1 (configuration not stated)	10%	35%[activator]

(listing goes on)
SMILES	Vaccinia Venus	Vaccinia mCherry
COC(=O)C(=CC(=CN(C)C)C=C(C(=O)OC)C(=O)OC)C(=O)OC	-7%	-22%
O=C(CNC(=O)c1ccccc1F)NCCc1ccc(Cl)cc1Cl	-6%	-10%
O=C(NC(=S)NCC1CCCO1)c1ccco1 (configuration not stated)	-7%	i
Cc1cccc(N2CCN(C(=O)c3ccc(N4CCCC4=O)cc3)CC2C)c1 (configuration not stated)	-26%	?
Cc1ccc(-n2cc(-c3ccccc3)c3c(NC4CCCC4)ncnc32)cc1	-6%	-16%
CCOC(=O)c1cccc(NC(=O)N2CCOCC2)c1	-21%	i
CC(=O)OC1CC2C(C)(C)C(O)CC[C@@]2(C)C2CC[C@@]3(C)C(c4ccoc4)OC(=O)C4OC43[C@]12C (some centres not stated)	?	?
NC(=O)c1nsc(C(=O)N(c2cccc(F)c2)C(C(=O)NC2CCCC2)c2ccco2)c1N (configuration not stated)	-27%	?
CCCN1C(=O)CN(C2CCCCCC2)C(=O)C1c1ccc(C)cc1 (configuration not stated)	-5%	i
COc1ccc(NC(=S)NNc2ccc(C(=O)O)cc2)cc1	0%	-9%
Nc1ncnc2c1ncn2[C@@H]1O[C@H](C(=O)NCC(F)(F)F)[C@@H](O)[C@H]1O	-11%	i
Cc1ccccc1OCC(=O)Nc1cc(C)c(O)c(-c2nc3ccccc3o2)c1	?	?
O=C1CCCCC1CCc1ccncc1 (configuration not stated)	-10%	i
O=C(c1c[nH]c2ccccc2c1=O)N1CCCCCC1	5%	1%
COc1cc(OC)c(NC(=O)c2cnn(-c3cccc(Cl)c3C)c2C2CCN(C(=O)OC(C)(C)C)CC2)cc1Cl	-1%	-10%

Reformatted: results already given
> CC(C)(C)C1CCC(=NNc2nc3ccccc3[nH]2)CC1 (configuration not stated)
  Vaccinia Venus = -13%	Vaccinia mCherry = -15%
> NNC(=O)CNc1ccccc1Cl
  Vaccinia Venus = -17%	Vaccinia mCherry = -4%
> CCN(C[C@H]1N[C@@](Cc2ccccc2)(C(=O)OC)[C@H]2C(=O)N(C)C(=O)[C@@H]12)C(=O)c1ccccc1
  Vaccinia Venus = -5%	Vaccinia mCherry = i
> COc1ccc(C(CNC(=O)CSc2ccc(Br)cc2)N2CCOCC2)cc1 (configuration not stated)
  Vaccinia Venus = 1%	Vaccinia mCherry = -22%

(further entries)
SMILES	Vaccinia Venus	Vaccinia mCherry
Cc1ccc(C2C(C(=O)c3cccs3)=C(O)C(=O)N2c2cccc(C)n2)cc1 (configuration not stated)	-9%	i
CCn1c(SCC(=O)c2c[nH]c3ccccc23)nc2cc(S(=O)(=O)N3CCOCC3)ccc21	-6%	-23%
Cc1ccc(S(=O)(=O)N2CCSC2c2ccco2)cc1 (configuration not stated)	-5%	·
COC(=O)c1ccc(C(=O)OC)c(NC(=O)N2c3ccccc3Sc3ccccc32)c1	8%	-12%
CN(C)S(=O)(=O)c1ccc(C(=O)Nc2ccccc2SCCC#N)cc1	-13%	-8%
COc1ccccc1C1C=C(c2ccc(C)cc2)Nc2nnnn21 (configuration not stated)	?	?
Cc1ccc(NC(=O)c2ccc(NC(=O)N3CCSc4ncccc43)cc2)c(Cl)c1	-13%	-12%
COc1ccccc1CNC(=O)CN(Cc1ccc(Cl)cc1)S(C)(=O)=O	-18%	-16%
Cc1nn(C)c(C)c1NC(=O)CCCSc1nc(-c2ccco2)cc(C(F)(F)F)n1	?	·
COc1ccc(NC(=O)CSc2nnc(NC(=O)C3CCC3)s2)c(OC)c1	-6%	-13%
Cc1cccc(N(C)S(=O)(=O)c2nnc(NC(=O)C3CCCCC3)s2)c1	-15%	-19%
COc1cc(OC)cc(C(=O)NCc2ccc(-n3cccc3)cc2)c1	-5%	?
COc1ccc2c(c1)c1c(c(=O)n(-c3ccccc3)c(=O)n1CC(=O)Nc1ccc(F)cc1)n2C	0%	6%
CC(=O)Nc1ccc(S(=O)(=O)N2CCN(c3cc4c(cc3[N+](=O)[O-])n(C)c(=O)n4C)CC2)cc1	-20%	-27%
O/N=C1\CC/C(=N\O)c2nn(-c3ccc(Cl)cc3Cl)nc21	-23%	-9%

The list goes on, starting with the last two of the part before.
SMILES	Vaccinia Venus	Vaccinia mCherry
CC(=O)Nc1ccc(S(=O)(=O)N2CCN(c3cc4c(cc3[N+](=O)[O-])n(C)c(=O)n4C)CC2)cc1	-20%	-27%
O/N=C1\CC/C(=N\O)c2nn(-c3ccc(Cl)cc3Cl)nc21	-23%	-9%
CCOC(=O)CN1NC2(CCC(C(C)(C)C)CC2)NC1=S (configuration not stated)	-5%	-9%
Cc1cccc(OCCCn2c(=O)oc3ccc(C)cc32)c1	-2%	-14%
CCN1CCN(c2ncnc3sc(C(=O)Nc4ccccc4F)c(C)c23)CC1	-14%	·
Cc1cccc(C)c1NC(=O)CN(C)C(=O)Cc1cccc(C(F)(F)F)c1	-15%	-23%
O=C(c1ccccc1)N(Cc1ccc(F)cc1)Cc1nc2ccccc2c(=O)[nH]1	-10%	-14%
COC(=O)c1ccccc1NC(=O)COC(C)=O	-17%	·
CC(C)NC(=O)Cn1c(=O)nc(-c2ccccc2)c2ccccc21	-22%	?
Cc1nc2ccc(S(=O)(=O)Nc3ccc(-c4nc5cccnc5s4)cc3)cc2s1	-23%	i
COCc1cc(C)nc2sc(C(=O)Nc3ccccc3OC)c(N)c12	-14%	i
COc1ccc(C(=O)NCCS(=O)(=O)NC(C)c2ccccc2)cc1 (configuration not stated)	-12%	-11%
O=C(Nc1cc(-c2nc3cc(Cl)ccc3o2)ccc1Cl)c1ccco1	1%	-12%
CC(NC(=O)COC(=O)c1cc(=O)c2ccccc2o1)c1ccccc1 (configuration not stated)	-7%	i
O=[N+]([O-])c1cc2oc3c(c2c(C=NCc2ccncc2)c1O)CCCC3	-2%	-25%
CC(=O)Nc1ccc(NC(=O)C(Cc2ccccc2)NC(=O)C2CCC(C)CC2)cc1 (configuration not stated)	-10%	-13%
C=CCN(c1ccccc1)S(=O)(=O)c1cccc(C(=O)NNC(=O)c2ccccc2O)c1	-29%	?
N#Cc1ccc(NC(=S)NCCN2CCOCC2)cc1	-6%	-26%
CCOC(=O)c1c(NC(=O)CSc2ncccn2)sc(C(=O)NC)c1C	-16%	-3%
Cc1occc1C(=O)NNC(=S)Nc1cccc([N+](=O)[O-])c1	-17%	-21%[1.46 µM]

A draw from above in order of count of non-hydrogen atoms, lowest first:
SMILES	Vaccinia Venus	Vaccinia mCherry
CCOC(=O)CN1NC2(CCC(C(C)(C)C)CC2)NC1=S (configuration not stated)	-5%	-9%
Cc1cccc(OCCCn2c(=O)oc3ccc(C)cc32)c1	-2%	-14%
COCc1cc(C)nc2sc(C(=O)Nc3ccccc3OC)c(N)c12	-14%	i
C=CCN(c1ccccc1)S(=O)(=O)c1cccc(C(=O)NNC(=O)c2ccccc2O)c1	-29%	?

High-throughput results deposited in PubChem BioAssay by National Center for Advancing Translational Sciences (NCATS).
